RGS16-Gao HTS – regulators of human RGS16-Galphao interaction; AID 1441; 220,000 tested, 0.38% active; bead-based flow cytometry RGS16-Galphao binding, fluorescence; actives lie on both sides; binding response (% of control), % at 10 µM;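 active = below 25% or above 175%, edge rows of some plates excepted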;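 note: Galphao activated by GDP with aluminum fluoride before binding; 100% = wells without compound and 0% = beads without RGS; some results beyond the cut were filed as inactive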
Target sequence (O15492 whole entry, looked up): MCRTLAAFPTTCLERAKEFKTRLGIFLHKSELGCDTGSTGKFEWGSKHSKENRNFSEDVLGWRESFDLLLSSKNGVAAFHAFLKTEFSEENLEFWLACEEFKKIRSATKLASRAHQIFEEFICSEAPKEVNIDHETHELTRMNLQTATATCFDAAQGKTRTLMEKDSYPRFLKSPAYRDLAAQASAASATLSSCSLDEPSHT
Target sequence (P09471 whole entry, looked up): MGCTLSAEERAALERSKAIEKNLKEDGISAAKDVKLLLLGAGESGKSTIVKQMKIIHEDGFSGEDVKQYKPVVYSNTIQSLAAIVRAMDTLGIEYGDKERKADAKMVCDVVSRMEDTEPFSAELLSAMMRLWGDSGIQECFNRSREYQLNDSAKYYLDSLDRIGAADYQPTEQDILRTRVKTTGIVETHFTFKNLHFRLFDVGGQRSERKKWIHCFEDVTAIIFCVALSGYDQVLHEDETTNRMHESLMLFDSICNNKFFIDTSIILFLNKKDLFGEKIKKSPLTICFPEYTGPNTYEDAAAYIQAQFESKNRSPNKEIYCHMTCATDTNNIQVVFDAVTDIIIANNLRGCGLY
HSV replic up – HSV replication enhancement; HSV replication augmentation in cells, fold increase; maximum fold increase; 220,000 tested, 0.005% active; AID 1956;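 active = peak rise of 1.5-fold or more in the series; inconclusive = self-fluorescent or not available for retest; tested in PC3 cells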;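 note: first round at 10 µM; read as green reporter fluorescence; hits show the peak of a series up to 25 µM; 1 = signal of infected wells without compound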
GALR2 ag – GALR2 (human) receptor agonism | O43603 | GALR2-expressing cells, agonist activation read-out | activation, %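 (tested at 5 µM)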 | 140,000 tested, 0.48% active;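 active = above mean plus 3 SD of all compounds, about 5% in these data, not always enough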;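 note: 0% = vehicle buffer wells and 100% = reference agonist at full effect; tested in CHO reporter cells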
Target sequence (O43603 whole entry, looked up): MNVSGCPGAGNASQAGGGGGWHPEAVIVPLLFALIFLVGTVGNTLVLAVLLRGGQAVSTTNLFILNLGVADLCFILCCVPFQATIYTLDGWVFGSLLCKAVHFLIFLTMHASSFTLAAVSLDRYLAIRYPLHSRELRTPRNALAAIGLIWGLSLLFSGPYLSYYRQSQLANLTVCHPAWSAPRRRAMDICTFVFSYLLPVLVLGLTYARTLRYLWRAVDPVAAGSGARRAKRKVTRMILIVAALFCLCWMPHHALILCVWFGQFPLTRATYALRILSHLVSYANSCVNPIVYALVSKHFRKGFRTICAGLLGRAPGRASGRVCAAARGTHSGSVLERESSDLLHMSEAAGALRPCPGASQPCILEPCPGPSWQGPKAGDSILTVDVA
Insulin prom inh – TRM-6 insulin promoter activity inhibition; TRM-6 cells (human fetal islet line), insulin promoter-eGFP reporter, imaging; reporter expression induced with tamoxifen; 130,000 tested, 0.9% active; inhibition, % at 2 µM;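 active = inhibition above the mean plus 3 SD, with well images judged a real hit on visual review, cut at about 60% in these data, passing the limit was not always enough; inconclusive = inhibition over the cutoff but images rejected on review; inactive = inhibition not above the cutoff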
PKD1 inh – PKD1 (human) kinase inhibition | Q15139 | PKD1 kinase fluorescence polarization assay | inhibition, %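 (about 10 µM by stock and volumes)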 | 200,000 tested, 0.056% active;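 active = inhibition of 50% or more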;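 note: controls were vehicle for no effect and a reference inhibitor for full effect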
Insulin prom inh cell count – also measured in Insulin prom inh; calls as there; normalized cell count, %; measured here: cell count, toxicity; reference of the scale not given here;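 cells exposed to compound for 48 h; stained nuclei by imaging scaled within each plate; lower means fewer cells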
HSV replic up primary fold – recorded beside HSV replic up, whose call it bears; fold increase; compound at 10 µM; measured here: primary screen fold increase 10 uM; tested in PC3 cells;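 GFP signal in the first replicate; 1 = infected wells without compound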
An asterisk follows results filed as active; i = inactive; ? = inconclusive; nt = no result given.

molecule,RGS16-Gao HTS,HSV replic up,HSV replic up primary fold,GALR2 ag,Insulin prom inh,Insulin prom inh cell count,PKD1 inh
COC(=O)CC1C(=O)NCCN1C(=O)CSc1nc2ccccc2o1 (stereo unspecified),95.3,i,1.02,nt,nt,nt,15.0
COc1ccc(-c2ccc(SCc3ccccn3)nn2)cc1OC,99.9,i,0.92,nt,14.3,95.9,2.7
CCOc1ccccc1NC(=O)N1CCCC1C(=O)Nc1ccc(NC(C)=O)cc1 (stereo unspecified),99.0,i,1,-2.0,nt,nt,-8.8
COc1ccc(NS(=O)(=O)c2ccc(NC(=O)c3cnn4c(C(F)F)cc(-c5ccc(C)cc5)nc34)cc2)cc1,104.0,i,0.8,-3.1,-2.7,70.4,-1.7
COCCNC(=O)c1cc(-c2cccnc2)nc2ccc(Br)cc12,95.6,i,0.96,-1.6,-7.7,117.0,-1.9
CC(C)(C)NC(=O)C(c1cccs1)N(C(=O)C(=O)NC1CCCC1)c1ccccc1F (stereo unspecified),105.9,i,0.95,nt,nt,nt,1.1
O=C1CCCN1CN(C(=O)c1ccccc1)c1ccc(F)cc1,102.5,i,1.07,-1.0,nt,nt,7.5
O=C(Cn1ncc2c1-c1ccccc1OC2)Nc1nc2ccccc2s1,103.1,i,1.09,-2.9,nt,nt,5.3
CC(=O)N1c2ccccc2Nc2ccccc21,102.2,i,0.94,-1.0,0.0,78.4,3.3
CC(C)(C)C(=O)CN1C(=O)C2(OCCO2)c2ccccc21,100.1,i,0.82,-2.9,35.5,98.5,-1.9
CN(C)C=Nc1nonc1N,97.6,i,0.89,0.1,21.1,120.0,-19.2
CS(=O)(=O)c1ccc2nc(NC(=O)c3cc(-c4ccccc4)nn3-c3ccccc3)sc2c1,118.0,i,0.78,-0.6,14.3,148.8,0.3
COc1cc(NC(=O)Cc2cccs2)ccc1-n1cnnn1,103.3,i,0.93,-0.4,15.4,64.4,-10.0
COc1ccc(OC)c(-c2csc(CCn3nc(C)cc3C)n2)c1,174.7,i,0.97,nt,33.3,94.6,8.3
CC1(C)CC(=S)Nc2ccccc2S1,88.5,i,0.88,-0.9,-19.1,106.4,-1.1
C1=C(c2ccccc2)Nc2nnnn2C1c1cccs1 (stereo unspecified),100.1,?,nt,-2.5,31.7,81.2,-9.2

A second format for two compounds above:
CS(=O)(=O)c1ccc2nc(NC(=O)c3cc(-c4ccccc4)nn3-c3ccccc3)sc2c1
- RGS16-Gao HTS: 118.0
- HSV replic up: i
- HSV replic up primary fold: 0.78
- GALR2 ag: -0.6
- Insulin prom inh: 14.3
- Insulin prom inh cell count: 148.8
- PKD1 inh: 0.3

CN(C)C=Nc1nonc1N
- RGS16-Gao HTS: 97.6
- HSV replic up: i
- HSV replic up primary fold: 0.89
- GALR2 ag: 0.1
- Insulin prom inh: 21.1
- Insulin prom inh cell count: 120.0
- PKD1 inh: -19.2

Next structures
molecule,RGS16-Gao HTS,HSV replic up,HSV replic up primary fold,GALR2 ag,Insulin prom inh,Insulin prom inh cell count,PKD1 inh
COc1ccc(CCNS(=O)(=O)c2ccc3oc(C(=O)O)c(C)c3c2)cc1OC,96.7,i,1.06,-0.5,-60.0,226.5,-4.5
CCOc1cc(C2NC(=O)NC(O)(C(F)(F)F)C2C(=O)c2ccc(OC)cc2)ccc1O (stereo unspecified),100.3,i,1,-3.2,nt,nt,10.5
Cc1cc(N2CCCCC2)nc(N)n1,92.9,i,1.03,0.0,-41.0,61.7,3.2
Nc1ccc(C(=O)OC2CCOC2=O)cc1[N+](=O)[O-] (stereo unspecified),102.0,i,0.97,-0.7,6.7,48.4,-4.4
Nc1n[nH]c(-c2cccc([N+](=O)[O-])c2)n1,101.4,i,0.92,0.6,20.7,138.8,1.8
COc1ccc(-c2nc(-n3c(C)c(C(C)=O)c(C(C)=O)c3C)sc2C)cc1,39.9,i,0.85,-0.7,68.6,65.3,-3.0
O=C(c1ccc(Cl)cc1)N1CCn2c1nc1ccccc12,96.1,i,1.02,nt,nt,nt,3.9
Cc1ccc2[nH]c(=O)c(CN(Cc3ccccc3)C(=S)NCCCN(C)C)cc2c1,102.4,i,0.65,nt,33.3,65.0,-1.8
Cc1cc(C)n(CCN(C)C(=O)CCc2nnc(CCC3CCCCC3)o2)n1,101.7,i,1.13,nt,-19.1,119.3,2.4
CCn1cnc2cc(NC(=O)c3ccco3)ccc21,87.8,i,1,-1.1,-130.8,91.8,1.6
CC12CC3CC(C)(C1)CC(C(=O)NC(=S)N1CCOCC1)(C3)C2,87.0,i,0.89,-1.1,-22.6,122.2,-2.6
O=C(Nc1ccccc1C(=O)NCc1ccco1)Nc1cccc2ccccc12,98.8,i,0.94,nt,nt,nt,2.2
c1ccc(-c2nnn(C34CC5CC(CC(C5)C3)C4)n2)cc1,123.7,i,1.04,0.2,nt,nt,-14.6
COC(=O)C1C(=O)C(C(=O)/C=C/c2ccccc2)C(=O)CC1(C)C (stereo unspecified),100.7,i,0.82,nt,nt,nt,-3.7
COc1cccc(CN(C)CC(=O)Nc2sc3c(c2C#N)CCC3)c1OC,107.7,i,1.02,nt,9.1,71.4,-3.9
COc1ccc(NC(=O)CSc2nnc(-c3ccccn3)n2-c2ccccc2)cc1OC,98.0,i,0.95,-2.9,-464.3,44.8,-12.7
N=C(N)N1CCc2ccccc2C1,121.8,nt,nt,-1.4,28.6,79.3,1.1
COCCNc1nnc(SCC(=O)c2c[nH]c3ccccc23)s1,63.1,i,0.78,-0.2,30.2,82.2,-6.9
CC(=O)Nc1ccc(OC(=O)c2c(-c3ccccc3Cl)noc2C)cc1,107.0,i,1.05,-0.1,30.3,73.7,-5.4
Cc1nc(=S)c2ccccc2[nH]1,93.8,i,1.12,1.6,11.5,91.9,-3.6
CN(CCCn1c(=S)[nH]c2ncccc2c1=O)Cc1ccccc1,102.4,i,0.96,-2.0,nt,nt,8.4
CS(=O)(=O)N1CCN(C(=O)c2ccccc2)C1,104.1,i,1.03,-4.4,-45.5,231.9,-13.9
Cc1ccc(N=Cc2c(C)[nH]n(-c3ccccc3)c2=O)nc1,98.1,i,0.96,nt,nt,nt,nt
CCOC(=O)/C(C#N)=C/c1ccc(N2CCN(C)CC2)cc1,99.8,i,0.97,-0.2,nt,nt,7.2
Cc1cc2ncn(CCOc3ccccc3)c2cc1C,96.4,nt,nt,-3.0,-10.8,82.6,4.6
Cc1cc(C(=O)N2CCc3c([nH]c4ccccc34)C2c2cccc(Cl)c2)nn1C (stereo unspecified),112.0,i,0.88,nt,0.0,133.2,4.4
O=C(O)C1CCCCC1C(=O)Nc1ccc(-c2ccccc2)cc1 (stereo unspecified),97.5,i,0.97,nt,2.3,84.4,2.9
CCOC(=O)c1c(NC(=O)c2cccs2)sc(CC)c1-c1cccs1,111.7,i,0.97,-1.6,34.6,88.0,0.3
O=c1n(Cc2ccc(F)cc2)nc2n1-c1ccccc1SC2,101.8,i,0.93,nt,nt,nt,nt
CCN(CC)c1ccc(C=C2C(=O)OC(c3ccccc3)OC2=O)cc1 (stereo unspecified),99.4,i,0.93,nt,-312.5,60.3,6.5
O=C(NNc1cccc(Cl)c1)c1cccnc1Oc1ccccc1,105.0,i,0.99,nt,nt,nt,nt
CC(C)(C)C1CCc2c(sc(NC(=O)c3cccs3)c2C(N)=O)C1 (stereo unspecified),100.3,i,0.91,-1.7,-17.2,71.6,-3.8
O=C(COC(=O)Cn1cnc2ccccc2c1=O)Nc1ccc2c(c1)OCO2,99.1,i,0.96,nt,nt,nt,-0.1
CCC1(c2ccc(F)cc2)NC(=O)N(CC(=O)N2CCOCC2)C1=O (stereo unspecified),nt,i,0.9,-1.5,38.5,159.1,-1.7
Cc1cc(NC(=O)c2ccccc2Cl)no1,100.4,i,0.89,-1.4,-27.8,111.8,-2.7
C/C(=N\NC(=O)c1ccc(Br)cc1)c1cccc(NC(=O)c2cccnc2)c1,104.7,i,0.99,nt,52.9,114.0,-4.8
O=C1CCC([N+](=O)[O-])C(c2ccccc2Cl)N1 (stereo unspecified),100.0,i,0.96,-0.6,-78.6,110.7,-10.3
O=C(COC(=O)Cc1cccs1)Nc1ccccc1,108.9,i,0.93,-1.5,-75.8,106.1,-14.1
CC(=O)N(CCC(Cc1ccccc1)c1ccc2c(c1)OCO2)Cc1ccc(Cl)cc1 (stereo unspecified),98.7,i,0.99,-2.2,-60.9,72.1,-1.2
COC(=O)c1c(NC(=O)c2c(-c3ccccc3Cl)noc2C)sc2c1CCC2,103.0,nt,nt,-0.8,36.1,78.7,-0.7
COc1ccc2nnc(-c3ccccc3)n2n1,106.1,i,1.06,-1.0,nt,nt,-9.5
CC12COC3(C(=O)NCCc4ccccc4)CC1CCC32C (stereo unspecified),104.2,i,1.14,-1.5,-8.8,130.0,6.6
Cc1ccc(NC(=S)N2CCN(C(=O)C3CCCO3)CC2)c(C)c1 (stereo unspecified),102.0,i,0.97,-1.1,-17.1,130.5,-5.0
CC(=O)N/C(=N\OCc1ccc(Br)cc1)c1nonc1NC(C)=O,100.5,i,1.01,-0.3,nt,nt,-3.8
Cc1cc(NC(=O)CCC(=O)N(CC2CCCO2)C(C(=O)NC2CCCC2)c2cccnc2)no1 (stereo unspecified),103.7,i,0.87,-1.9,-42.9,53.7,-0.9
COc1cc(NC(=O)c2ccccc2NS(=O)(=O)c2ccc(Cl)s2)cc(OC)c1,96.9,i,0.93,-1.7,15.4,72.3,-8.3
C=CCn1c(CNC(=O)c2cccs2)nnc1SCc1ccc(Cl)cc1Cl,92.3,i,1.04,-0.7,nt,nt,-6.4
COc1ccccc1CN1C[C@@H]2C[C@@H](c3[nH]c4c(C)cccc4c3C)N3CCC[C@@]23C1=O,99.8,i,0.85,nt,nt,nt,-0.9

In the list so far, these have a furan ring, fused or not.
molecule,RGS16-Gao HTS,HSV replic up,HSV replic up primary fold,GALR2 ag,Insulin prom inh,Insulin prom inh cell count,PKD1 inh
COc1ccc(CCNS(=O)(=O)c2ccc3oc(C(=O)O)c(C)c3c2)cc1OC,96.7,i,1.06,-0.5,-60.0,226.5,-4.5
CCn1cnc2cc(NC(=O)c3ccco3)ccc21,87.8,i,1,-1.1,-130.8,91.8,1.6
O=C(Nc1ccccc1C(=O)NCc1ccco1)Nc1cccc2ccccc12,98.8,i,0.94,nt,nt,nt,2.2

Going on with the list.
molecule,RGS16-Gao HTS,HSV replic up,HSV replic up primary fold,GALR2 ag,Insulin prom inh,Insulin prom inh cell count,PKD1 inh
COc1ccc2nc(/C=N/NC(=O)[C@@H]3CCCN3C(=O)OC(C)(C)C)ccc2c1,93.4,i,0.97,nt,nt,nt,nt
O=C(N/N=C/c1cc(Cl)ccc1O)c1ccncc1,89.2,i,0.91,nt,nt,nt,nt
CN1CCCN(c2ccc([N+](=O)[O-])cc2)CC1,103.3,i,0.95,nt,nt,nt,-10.3
CC1(OC(=O)CCc2ccccc2)C(=O)C=C2C=C(c3ccsc3)OC=C2C1=O (stereo unspecified),93.7,i,1.1,nt,nt,nt,nt
O=C(c1ccc(F)cc1F)N1CCN(c2n[nH]c(=O)[nH]c2=O)CC1,96.9,i,0.89,nt,14.3,133.9,-6.2
O=C1C(=O)N(CCCn2ccnc2)C(c2cccnc2)/C1=C(/O)c1ccc(Br)cc1 (stereo unspecified),nt,nt,nt,-2.0,58.3,162.3,-3.7
CCOC(=O)N1CCN(c2c(N3CCN(c4cc(C)ccc4C)CC3)c(=O)c2=O)CC1,99.3,i,0.93,-0.7,nt,nt,-12.7
CC(NC(=O)CCl)c1ccccc1Br (stereo unspecified),99.3,i,0.52,nt,nt,nt,nt
O=C(Nc1nccs1)C1CCCN(S(=O)(=O)c2cccc3cccnc23)C1 (stereo unspecified),105.6,i,1.02,-2.9,nt,nt,-8.6
COCCNC(=O)NC(=O)CN1CCCc2ccccc21,99.7,i,1.2,nt,nt,nt,2.8
CCOC(=O)c1cccc(NC(=O)/C=C/c2ccc3c(c2)OCO3)c1,56.3,i,0.84,-0.9,-56.2,154.2,15.2
CC(C)OC(=O)CCC(=O)Nc1ccc(F)cc1,98.1,i,1.03,nt,-17.6,121.7,-4.8
COc1ccc(CCNC(=O)C2Cc3ccccc3C(=O)O2)cc1 (stereo unspecified),97.6,i,0.96,nt,66.7,100.6,-0.4
C=C(C)CN(CC)CCC(=O)Nc1ccc(OC)cc1OC,71.3,i,0.88,-0.9,-21.6,153.8,-1.4
C/C(=N\O)c1ccc(Cl)c(Cl)c1,105.0,i,0.98,nt,nt,nt,nt
CCN(C1CCCCC1)S(=O)(=O)c1ccc(S(=O)(=O)NCc2ccncc2)cc1,90.6,i,0.99,-0.5,-21.2,106.2,-13.1

Screening results deposited in PubChem BioAssay by several laboratories.
